Screening results: PubChem BioAssay, several laboratories
WNV NS2B-NS3 inh: inhibitors of West Nile virus NS2B-NS3 protease; P06935; WNV NS2B-NS3 protease, fluorogenic substrate Ex360/Em465; hits give low values; z-score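 (tested at a level between 10 and 100 µM)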; 65,000 tested, 0.18% active;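 active = z-score at -3 or under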;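 note: score is relative to mean and spread of the compound wells of a plate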
Target sequence (P06935 1371-1501 limits assumed): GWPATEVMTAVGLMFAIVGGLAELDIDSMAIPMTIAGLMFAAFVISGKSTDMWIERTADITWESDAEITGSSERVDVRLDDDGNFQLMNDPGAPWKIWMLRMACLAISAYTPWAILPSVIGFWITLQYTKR
Target sequence (P06935 1502-1679 limits assumed): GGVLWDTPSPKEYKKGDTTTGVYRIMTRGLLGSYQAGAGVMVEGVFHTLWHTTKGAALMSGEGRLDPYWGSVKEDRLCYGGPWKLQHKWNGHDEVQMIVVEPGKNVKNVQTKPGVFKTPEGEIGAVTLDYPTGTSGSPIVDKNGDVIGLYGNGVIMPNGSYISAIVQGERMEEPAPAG
MT1-MMP reporter: inhibitors of MT1-MMP promoter transcription, cell-based, luciferase reporter, luminescence (AID 618) | calls from a first round at 10 µM; hits with a dose series show EC50 in µM | MT1-MMP promoter luciferase reporter cells, luminescence | 87,000 tested, 0.62% active;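 active = over half of the reporter light lost at 10 µM or EC50 under 50 µM; inactive = the rest and hits that failed the dose series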;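 note: actives suppress MT1-MMP promoter-driven transcription so potencies describe inhibitors; HT1080 fibrosarcoma cells; overnight exposure; toxic or luciferase-blocking compounds were not removed from the actives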
Hsc70 ATP site: Hsc70 inhibitors, probe displacement, primary screen, biochemical, fluorescence polarization (AID 568); displacement, % at 20 µM; hits with a dose series show IC50 in µM; Hsc70 fluorescence polarization, probe displacement; higher % means a stronger effect; strong numbers were not always called active; 83,000 tested, under 10 active;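 active = displacement above 50% without optical interference and an IC50 on retest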;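 note: ATPase domain with a fluorescein-tagged ATP probe; 0% = vehicle and 100% = excess ADP; read after one hour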
* hit, by the source's call; i = inactive; . = no result given; + = active, no number. Compounds as they come; about 0.87% have a hit in one of these screens.

mol | WNV NS2B-NS3 inh | MT1-MMP reporter | Hsc70 ATP site
COc1ccc(/C=N/Nc2ccccc2)cc1Cn1nc(C)c([N+](=O)[O-])c1C | . | i | -3.1%
O=C(Nn1cnnc1)C1Cc2ccccc2CN1S(=O)(=O)c1ccc(F)cc1 (centres undefined) | -0.6 | i | -3.0%
Cc1ccnc(NS(=O)(=O)c2ccc(NC(=O)C34CC5CC(C)(CC(C)(C5)C3)C4)cc2)n1 | . | i | -3.6%
CCOC(=O)N1CCC(N(CCCOC)C(=O)Nc2cccc(OC)c2)CC1 | -0.62 | i | -8.2%
CCOC(=O)N1CCN(C(=O)C2CCN(Cc3nc(-c4ccccc4C)oc3C)CC2)CC1 | -0.43 | i | 0.1%
O=C(CCN1CCCCC1)NCC1OCCc2ccccc21 (centres undefined) | -0.88 | i | 7.1%
COc1ccc(OC)c(-n2c(SC)nnc2-c2c[nH]c3ccccc23)c1 | 1.68 | i | 5.4%
COc1ccc(CCn2nnnc2C(C(C)C)N2CCN(c3ncccn3)CC2)cc1OC (centres undefined) | -1.2 | i | -1.8%
Cc1ccc(C(=O)OCc2ccc3c(c2)OCO3)cc1S(=O)(=O)N1CCCCC1 | . | i | -2.3%
Cc1ccc(N(CC(=O)Nc2ccc(F)c(Cl)c2)S(=O)(=O)c2c(C)noc2C)cc1 | -1.23 | i | 0.3%
O=P(O)(CN1CCCCC1)CN1CCCCC1 | -0.75 | i | 2.8%
CCOC(=O)c1cn(CC)c2ccc(S(=O)(=O)N3CC(C)CC(C)C3)cc2c1=O (centres undefined) | -0.24 | i | 4.3%
O=c1c2c(nc3c(-c4ccccc4)c[nH]n13)CCC2 | . | i | 2.2%
COc1ccc(C(NC(=O)CC(C)C)NC(=O)CC(C)C)cc1OC | . | i | -3.0%
O=C(O)CSc1ccc2ccccc2n1 | -0.32 | i | 2.4%
O=C(COC(=O)C1COc2ccccc2O1)Nc1ccc2c(c1)CCC2 (centres undefined) | 0.16 | i | 4.7%
CCC(C)Nc1nc(OC)nc(N(C)C#N)n1 (centres undefined) | -0.35 | i | -16.2%
COC(=O)[C@@H]1C2CCC(C(=O)Nc3ccccc3)(CC2)[C@@H]1C(=O)OC | -0.63 | i | 0.8%
O=C(CCCNS(=O)(=O)c1cccc2nsnc12)NCc1ccc(F)cc1 | -0.76 | i | 4.6%
CC(CN1CCCCC1)OC(=O)C(C)(c1ccccc1)c1ccccc1 (centres undefined) | . | i | -0.3%
CCCCn1c(CN2CCN(CCO)CC2)nc2ccccc21 | 0.2 | i | 1.7%
CCCSc1nc2c(c(=O)n1-c1ccc(OCC)cc1)SCC2 | -0.53 | i | -1.1%
Cc1nc(SCC(=O)NC2CCCC2)[nH]c(=O)c1Cc1ccccc1 | . | i | 6.6%
COc1ccc(OC)c(NS(=O)(=O)c2ccc(N3CCCC3=O)cc2)c1 | 0.24 | + | -1.0%
O=C(CSc1ncn[nH]1)c1ccc2c(c1)OCO2 | -0.16 | i | -2.3%
Nc1ccccc1N1CCN(C(=O)c2ccccc2)CC1 | . | i | 5.2%
CCOC(=O)C(C(=O)OCC)c1cc(Br)c2noc3c2c1C(=O)c1ccccc1-3 | 0.29 | i | 5.7%
CCOc1ccccc1CN1CCC(O)CC1 | . | i | -3.3%
N/C(Cc1ccc(Cl)cc1)=N\OC(=O)c1cccc2ccccc12 | . | i | 0.5%
Cc1cc(=O)n2nc(N3CCCC(C(=O)NCc4ccc5c(c4)OCO5)C3)sc2n1 (centres undefined) | -0.86 | i | -3.0%
COC(=O)c1ccc(Cl)c(NS(=O)(=O)c2ccc3c(c2)OCCO3)c1 | 0.98 | i | -1.3%
CN(C)c1ccc(C(=O)c2ccc(N(C)C)c(N)c2)cc1N | -0.64 | i | -4.9%
CCOC(=O)N1CCN(c2c(N3CCN(c4ccccn4)CC3)c(=O)c2=O)CC1 | -0.09 | i | 3.0%
c1ccc(SCCOCCn2cncn2)cc1 | 0.72 | i | 3.4%
CC1CCCN(S(=O)(=O)c2ccc(Br)s2)C1 (centres undefined) | -0.69 | i | -71.9%
Brc1cc2c(cc1COc1ccc(-c3nn[nH]n3)cc1)OCO2 | -1.04 | i | 0.7%
COC(=O)c1[nH]c2ccc(Cl)cc2c1NC(=O)CCN1CCN(C2CCCCC2)CC1 | 1.4 | i | 2.2%
CN(C)S(=O)(=O)c1ccc(C(=O)Nc2ccc(CCC(=O)N3CCCC3)cc2)cc1 | 1.22 | i | -4.2%
CCn1c(=O)cc(SCC(=O)N2CCN(Cc3ccc4c(c3)OCO4)CC2)c2ccccc21 | 1.35 | i | -7.1%
CCCCOc1ccc(C(=O)O)cc1 | -1.74 | i | -2.8%
COc1ccccc1N(CC(=O)NC1CCCCC1)C(=O)c1csnn1 | . | i | -1.1%
C/C(N)=C(/C#N)C(=O)COC(=O)CC12CC3CC(CC(C3)C1)C2 | . | i | 1.5%
COc1ccccc1N=c1oc2cc(O)ccc2cc1C(=O)NCC1CCCO1 (centres undefined) | -0.49 | i | 2.0%
CCC(NC(=O)C1CCC1)c1ccccc1 (centres undefined) | . | i | 1.7%
Cc1ccc(NS(=O)(=O)c2ccc(CCC(=O)NC3CC3)cc2)cc1 | . | i | -3.6%
CC(=O)/C(CN1CCCCC1)=N\O | -1.16 | i | -6.2%
O=C(NC1CCCCC1)c1ccc(CS(=O)(=O)Cc2ccccc2F)o1 | -0.67 | i | -9.1%
CC(Sc1nc(-c2ccccc2)cc(=O)[nH]1)C(=O)O (centres undefined) | . | i | -1.3%
CCCN(CCC)S(=O)(=O)c1ccc(NC(=O)C2CCCO2)cc1 (centres undefined) | . | i | -0.8%
CCCN1CCN(C(=O)CCCn2c(C)c3cnn(-c4ccccc4)c(=O)c3c2C)CC1 | -1.03 | i | 4.3%
CC(=O)NCCc1cc2ccc(C)cc2[nH]c1=O | -0.26 | i | 0.3%
Cc1ccc2nsnc2c1S(=O)(=O)N(CCO)Cc1cc2cc3c(cc2[nH]c1=O)OCCO3 | -0.22 | i | 5.8%
Cc1occc1C(=O)Nc1ccccc1C(=O)O | -1.11 | i | 2.0%
CCC(CC)C(=O)Nc1cccc(C(=O)N2CCCC2)c1 | -0.6 | i | 5.0%
CCN(CC)c1ccc(C=Nc2ccccc2)c(O)c1 | . | i | -6.6%
Cn1c(-c2cc(Br)ccc2O)n[nH]c1=S | 0.49 | i | 3.4%
CCCCn1c(=O)n(CC(=O)NCc2ccc(C)cc2)c(=O)c2c1nc(CO)n2CCC | -0.9 | i | -1.1%
Cc1occc1C(=O)Nc1ccc(Br)cc1F | . | i | -2.6%
O=C(c1ccccc1Oc1ccccc1)N1CCN(c2ccccc2F)CC1 | . | i | -4.3%
CCOc1ccc(/C(O)=C2/C(=O)C(=O)N(CC3CCCO3)C2c2ccc(C)o2)cc1 (centres undefined) | 3.21 | i | -2.4%

Later entries:
mol | WNV NS2B-NS3 inh | MT1-MMP reporter | Hsc70 ATP site
COc1cc(C(=O)N(Cc2ccc(N(C)C)cc2)C2CCS(=O)(=O)C2)cc(OC)c1OC (centres undefined) | 0.35 | i | -4.2%
CCN(CC)CCNc1nc2c(c(=O)n(C)c(=O)n2C)n1C/C=C(/C)Cl | -0.78 | i | 2.3%
CCCNC1=C(C)C(=O)CC1 | 0.6 | i | 8.9%
Cc1ccc(-c2nnc(SCC(=O)N3CCCC3)o2)cc1 | -0.5 | i | 0.6%
CCOC(=O)c1ccc(N2C(=O)CC(N3CCN(C(=O)c4ccco4)CC3)C2=O)cc1 (centres undefined) | -0.13 | i | -2.2%
COc1ccccc1CNC(=O)CCC(=O)Nc1nnc(C)s1 | -2.37 | i | -4.0%
O=S(=O)(Nc1ccccc1F)c1ccc2nsnc2c1 | 2.68 | i | -1.7%
CCOc1ccc(N(CC(=O)Nc2ccccc2C(=O)NCc2ccco2)S(C)(=O)=O)cc1 | . | i | -0.9%
O=C(Cn1c(=O)c2c(ncn2Cc2ccccc2)n(Cc2ccccc2)c1=O)N1CCCC1 | 0.93 | i | -1.5%
O=C(NCC(c1cccnc1)N1CCN(c2ccc(F)cc2)CC1)C1CCCCC1 (centres undefined) | 0.54 | i | -0.7%
Cc1ccccc1C(=O)NC1CCN(Cc2nnnn2Cc2ccccc2)CC1 | -0.38 | i | 1.2%
CCC(=O)Nc1cc(-c2nn(C)c(=O)c3ccccc23)ccc1N1CCOCC1 | . | i | -0.5%

By substructure: the entries above containing a cyano group (two)
mol | WNV NS2B-NS3 inh | MT1-MMP reporter | Hsc70 ATP site
CCC(C)Nc1nc(OC)nc(N(C)C#N)n1 (centres undefined) | -0.35 | i | -16.2%
C/C(N)=C(/C#N)C(=O)COC(=O)CC12CC3CC(CC(C3)C1)C2 | . | i | 1.5%

Following part
mol | WNV NS2B-NS3 inh | MT1-MMP reporter | Hsc70 ATP site
Cc1cnn(C(=S)NCc2ccc(Cl)cc2)c1 | -0.87 | i | 0.2%
COc1ccc(C(=O)Nc2nnc(Cc3cccs3)s2)cc1OC | -0.57 | i | -4.8%
O=C(CCS(=O)(=O)c1ccccc1)Nc1nc2c(s1)COc1ccccc1-2 | 0.07 | i | -3.7%
Cc1ccc(F)c(NC(=O)C2CCCCC2C(=O)O)c1 (centres undefined) | 0.11 | i | 0.2%
COc1ccc(C2C3=C(CC(C)(C)CC3=O)Oc3ncn(Cc4ccccc4)c(=N)c32)cc1 (centres undefined) | . | i | 3.5%
CC(OC(=O)CN(C)S(=O)(=O)c1ccc(Cl)cc1)C(=O)Nc1ccc(N2CCOCC2)cc1 (centres undefined) | 0.09 | i | 4.7%
S=c1[nH]nc(-c2cc(-c3ccco3)[nH]n2)n1-c1ccccc1Cl | . | i | -4.0%
CCOC(=O)Cn1c(=O)n(CC(=O)OCC)c2ccccc21 | -0.45 | i | -2.5%
O=C(NC1CCCCC1)N1CCCCCCC1 | -0.25 | i | 8.7%
CCCC(=O)NC(Nc1ccc(S(=O)(=O)Nc2cc(C)on2)cc1)(C(=O)OCC)C(F)(F)F (centres undefined) | -0.83 | i | 2.7%
CC1CCc2c(C(=O)N3CCN(S(=O)(=O)c4cccs4)CC3)csc2C1 (centres undefined) | 0.17 | i | 9.8%
Cc1nc2sc(C(c3ccc(Cl)cc3)N3CCN(CCO)CC3)c(O)n2n1 (centres undefined) | 0.98 | i | -1.3%
Cc1cc(C(=O)NCC2CCCO2)n(-c2ccccc2)n1 (centres undefined) | -1.1 | i | -6.1%
CCN(CC)S(=O)(=O)c1cccc2c(N(C)C)cccc12 | 0.5 | i | 7.8%
Cc1cc(=S)cc(C)n1CCCO | -1.05 | i | -2.4%
O=C(Nc1nccs1)c1csc2c1CCCC2 | . | i | 0.3%
COc1ccccc1NC(=O)CSc1ccc2nnc(-c3cccnc3)n2n1 | -0.77 | i | -2.7%
CCC(CC)C(=O)Nc1ccccc1NC(C)=O | -0.39 | i | 0.4%
O=C(Cc1ccc(Br)cc1)N1CCCCCC1 | -0.55 | i | -3.5%
CC(=O)N1CCc2cc(S(=O)(=O)NCCC3=CCCCC3)ccc21 | -0.05 | i | -1.9%
c1ccc(-c2nnc(CN3CCC4(CC3)OCCO4)o2)cc1 | 0.47 | i | 3.0%
Cc1cc(C)nc(N2CCC(C(=O)Nc3ccc4c(c3)OCO4)CC2)n1 | -0.37 | i | -3.6%
CCC(=O)Nc1sc2c(c1C(=O)N(C)C)CCCCC2 | . | i | 0.7%
O=C(NCCc1c[nH]c2ccccc12)Nc1ccccc1 | . | i | 2.5%
O=c1[nH]nc(CSCc2ccccc2Cl)[nH]1 | -0.64 | i | -3.1%
CCOc1ccc2nc(NCCCNS(=O)(=O)c3ccccc3)c(C#N)cc2c1 | -0.2 | i | 1.3%
O=S(=O)(Cc1nc2ccccc2s1)c1ccccc1 | -0.79 | i | 1.6%
Cc1cc(C(=O)CN2C(=O)NC3(CCCc4ccccc43)C2=O)c(C)n1Cc1cccs1 (centres undefined) | 1.09 | i | 11.9%
COc1ccc(NC(=O)c2cnc(C)cn2)c2ncccc12 | -0.91 | i | -4.2%
COc1ccc(CC(NC(C)=O)C(=O)NC2CCN(S(=O)(=O)c3cccc4ccccc34)CC2)cc1OC (centres undefined) | . | i | 8.0%
CCOC(=O)c1cc(C(C)=O)c(=O)n(C)c1N | -0.11 | i | 1.9%
O=c1nc2n(c3ccccc13)Cc1ccccc1-2 | -0.06 | i | 6.9%
Cc1cccc(Nc2nc(N)nc(CSc3nccn3C)n2)c1 | . | i | 5.4%
O=C(Nc1nccs1)c1ccc(CSc2nnnn2-c2ccccc2)cc1 | 0.42 | i | -3.3%
CCCn1c(SCC#N)nc2c(c1=O)C1(CCCC1)Cc1ccccc1-2 | 1.67 | i | -6.1%
N=c1c(C(=O)NCc2ccc(F)cc2)cc2c(=O)n3ccccc3nc2n1CCCN1CCOCC1 | 1.78 | i | 2.4%
